Prx2 Sm inh = Schistosoma Mansoni Peroxiredoxins (Prx2). Schistosoma mansoni peroxiredoxin 2 (Prx2). S. mansoni Prx2 activity coupled to TGR/GSH (TGR is thioredoxin glutathione reductase), NADPH fluorescence loss, qHTS; some inactives read as strong as hits. Potency, µM. 0.07% of 65,000 active. AID 448, 2006; active means full or partial inhibition curve with a strong effect at the top dose; inconclusive means weaker partial or single-point curve; inactive means no accepted curve; further: series up to 57 µM; many of its hits are not listed in these tables
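qHTS, coupled TGR/Prx2 format; 15 min compound preincubation at RT; reaction started with H2O2 (2.5 mM aliquot); kinetic NADPH fluorescence decrease, ex 365/em 450 nm.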
LT uptake inh = qHTS Assay for Anthrax Lethal Toxin Internalization. Cells, anthrax lethal toxin internalization, FRET ratio (460/530). Potency, µM (titrated, usually from 40 µM), inactives show top-dose activity change, negative = inhibition, actives largely listed as inhibitors. 0.67% of 70,000 active. AID 912, 2007; active = well fitted falling ratio curve with the 530 nm signal flat; inconclusive = other ratio curves, or a change in one channel alone; inactive = flat curves in the ratio and both channels; the % refers to the ratio; further: on the % scale 0 is the no-effect control and ±100 the full control effect; nearly all actives have a fitted effect of over 50% in size; tested in ME-180 cells; beta-lactamase reporter
Starred values were filed as active, the others as inactive; ? = inconclusive; nt = no result given; & = joins results of further samples; [ ] = another dose, or the depositor's remark. Potency means the concentration at half of the fitted maximal effect. The list is partial; the hit share may differ from the screen's.

Every second line gives: Prx2 Sm inh, LT uptake inh
COc1ccccc1CN1CC2(CCN(S(C)(=O)=O)CC2)C1
 : >57, 7%
Cc1cnc(CNc2ncnc3ccc(-c4ccccc4Cl)cc23)cn1
 : >57, ?
CCn1c(=O)cc(O)c2ccccc21
 : nt, -8%
C=CCSc1nnc2c(n1)OC=Nc1ccccc1-2
 : nt, -4%
c1ccc(CCN2CN=C(Nc3nc4ccccc4o3)NC2)cc1
 : >57, 17%
CCOC(=O)N1CCN(C(=O)CSc2nnc(-c3ccc(C)c(C)c3)o2)CC1
 : >57, ?
Cc1cc(C(=O)Nc2sc3c(c2C#N)CCC(C)C3)no1 (centres undefined)
 : >57, nt
CCOc1ccccc1C(=O)Nc1ccc(S(=O)(=O)N2CCOCC2)cc1
 : >57, 4%
COc1ccc(NC(=O)N2CC[C@@]3(CCCN(C(=O)c4cc(C(F)(F)F)cc(C(F)(F)F)c4)C3)C2)cc1
 : >57, -10%
COc1ccc(S(=O)(=O)n2cnc3cc(C)c(C)cc32)cc1
 : nt, -29%
COc1ccc(-c2c(NC(C)=O)n(C)c3ccccc3c2=O)cc1
 : >57, -7%
CCCCCn1c(=O)[nH]c2cc(C(=O)NCCCN(CC)CC)ccc2c1=O
 : >57, -23%
O=C1NCC(O)=C1C=NCCCO
 : >57, 8%
O=C(COC(=O)CCN1C(=O)c2ccccc2C1=O)Nc1ccc(S(=O)(=O)N2CCCC2)cc1
 : >57, 6%
Nc1ccn(-c2ccc(Cl)cc2)c(=O)c1
 : >57, ?
O=C(NCC1CCCO1)C1CCCN(S(=O)(=O)c2cccc3nsnc23)C1 (centres undefined)
 : nt, ?
CC(C)(C)c1cc(CCC(=O)N2CCNCC2)c(C(C)(C)C)cc1O
 : >57, -23%
Cc1cc(C)n2nc(C(=O)NCc3ccco3)nc2n1
 : >57, -11%
COC(=O)c1ccc(CSc2ccc3nnc(-c4ccc(OC)c(OC)c4)n3n2)o1
 : >57, -6%
COc1cc(/C=c2\sc3nc(-c4ccncc4)nn3c2=O)ccc1OC(C)=O
 : >57, 6%
O=C1Nc2ccccc2C(O)(C(=O)N2CCCCC2)N1c1ccccc1 (centres undefined)
 : nt, 15%
O=C1C=C(NCc2ccccc2)C2(CCCCC2)O1
 : nt, -11%
CC(=NCCN1CCOCC1)c1c(O)n(C2CCCCC2)c(=O)[nH]c1=O
 : >57, -4%
Cc1onc(-c2ccccc2)c1C(=O)Oc1cccnc1
 : >57, -4%
Cc1ccc(C)c(N=C2NC(=O)CS2)c1
 : >57, -12%
O=C(NCc1ccco1)c1cc2ccccc2o1
 : nt, -1%
CC(=O)c1cnc2nc(C(F)(F)F)nn2c1C
 : >57, -2%
COCCNC(=O)CN1C(=O)CSc2ncccc21
 : >57, 5%
CCCC(=O)c1cc2ccccc2oc1=O
 : >57, -2%
COC(=O)CSc1nnc(-c2ccoc2C)n1-c1ccc(OC)cc1
 : >57, -6%
O=C1Nc2ccccc2OC1CC(=O)N1CCCC1 (centres undefined)
 : >57, 5%
C[C@@H](C(=O)Nc1ccc2ccccc2c1)[C@H]1C[C@]1(C)[C@H](NC(=O)c1cnccn1)c1ccccc1
 : >57, ?
CCn1c2ccccc2c2nc3ccccc3nc21
 : >57, -7%
Cn1ncc(N)c1C(=O)Nc1cccc(C(F)(F)F)c1
 : >57, 6%
O=c1cnc2cnc(Nc3ccccc3)nc2n1Cc1cccs1
 : >57, ?
Cc1cc(C)n(C(=O)c2ccncc2)n1
 : >57, -3%
COc1ccc(-n2c(=O)c(-c3ccc(F)cc3)nc3cnc(OC)nc32)cc1
 : >57, 13%
CC(=O)N(Cc1ccco1)C1(C(=O)NC2CCCCC2)CCCCC1
 : >57, 1%
Cc1c(NC(=O)c2cc(-c3cccs3)on2)c(=O)n(-c2ccccc2)n1C
 : >57, -1%
N#Cc1c(NCCCO)nc(NCc2ccccc2)c2c1CCN(Cc1ccccc1)C2
 : >57, ?
CC(Sc1nnc(C2CCCCC2)n1N)C(=O)NCc1ccc2c(c1)OCO2 (centres undefined)
 : >57, -19%
C#CCCCO/N=C1/C[C@@H](O)[C@@H](O)[C@@H]2[C@@H]3C(=O)N(CCC(=O)OCC)C(=O)[C@H]3CC[C@H]12
 : nt, ?
CC(C)C[C@@H](CC(=O)N[C@@H](CCCN)CC(=O)N[C@@H]1CCNC[C@H]1C(=O)N[C@H](CC(=O)N[C@@H](CCC(=O)O)CC(=O)O)Cc1ccccc1)NC(=O)[C@@H]1CNCC[C@H]1N
 : >57, -7%
COc1cc(NS(=O)(=O)c2cccc3nsnc23)c(C(=O)O)cc1OC
 : >57, -7%
CN1C(=O)C(O)(c2sc(N)nc2-c2ccccc2)c2ccccc21 (centres undefined)
 : >57, 11%
COc1ccc(-c2nnc(SCc3ncc(-c4ccccc4)o3)o2)cc1
 : >57, ?
Cn1c(C(=O)N2CCCC(C(=O)NCc3ccc4c(c3)OCO4)C2)cc2sccc21 (centres undefined)
 : >57, -25%
COc1ccc(OC)c([C@H](O)[C@H](C)N)c1
 : >57&>57, 9%[3.58 µM]
CN1CCN(c2ccccc2NC(=O)c2ccc(-c3ccccc3)cc2)CC1
 : >57, nt
FC(F)(F)c1cc(-c2ccco2)nc(-n2nnc3ccccc32)n1
 : >57, 0%
Cc1noc(C)c1C(=O)N1CCN(Cc2ccc3c(c2)OCO3)CC1
 : >57, ?
COc1ccc(C2c3c(oc4ccccc4c3=O)C(=O)N2c2ccccn2)cc1OC (centres undefined)
 : >57, 4%
O=C(CCN1C(=O)C2CC=C(Cl)CC2C1=O)Nc1ccccc1O (centres undefined)
 : >57, -5%
CC(=O)NC1CC2CCCC(C1)N2S(=O)(=O)c1cccc(F)c1 (centres undefined)
 : >57, -15%
COc1ccc(CCNC(=O)c2c(O)c3c([nH]c2=O)CCCC3)cc1OC
 : >57, 10%
CCCC(=O)Nc1ccc(Cl)c(NC(=O)CC)c1
 : >57, -2%
Cc1ccc(Nc2cc(C)nc3nnnn23)cc1
 : >57, -3%
O=C(Cn1cnc2c(nnn2-c2cccc(Cl)c2)c1=O)N1CCCC1
 : >57, -4%
NC(=O)C1(N2CCCCC2)CCN(CC(=O)Nc2ccc(Oc3ccccc3)cc2)CC1
 : >57, 16%
CCCn1nnc(NC(=O)COc2ccc(C3CCCCC3)cc2)n1
 : >57, ?

The list continues.
Every second line gives: Prx2 Sm inh, LT uptake inh
N#CC1=C(N)OC2=C(C(=O)CCC2)C1C1CC=CCC1 (centres undefined)
 : >57, 8%
COC(=O)c1ccc(CN2C(=O)NC3(CCCc4ccccc43)C2=O)o1 (centres undefined)
 : >57, 1%
Cc1ccc(-n2c(=O)cc(N3CCN(C(=O)c4ccco4)CC3)[nH]c2=O)cc1
 : >57, 7%
COc1ccc(S(=O)(=O)Nc2cc(C)cc(C)n2)c2ccccc12
 : >57, 0%
N#C/C(C(=O)NCc1ccco1)=C1/SC=C(c2ccccc2)N1c1ccccc1
 : nt, 0%
Cn1cccc1C(=O)N1CCC2(CC1)CN(Cc1ccc(C#N)cc1)C2
 : >57, -3%
N=c1c2c3c(sc2nc2n1CCCCC2)CCCCC3
 : nt, -19%
Cc1ccc(C(C)C)c(OCCCN2CC(C)OC(C)C2)c1 (centres undefined)
 : nt, ?
CCOC(=O)c1c(NC(=O)CN2CCCCC2)sc2c1CCCC2O (centres undefined)
 : >57, -25%
C=CCc1cccc(C2Nc3ccccc3C(=O)N2O)c1O (centres undefined)
 : >57, -4%
O=S(=O)(c1cccc(Cl)c1)N1CCCC1
 : >57, -13%
CCC(=O)Nc1cc(C)c(NC(=O)c2ccco2)cn1
 : >57, -4%
O=C(Cc1ccccc1)NCCc1cn2ccsc2n1
 : >57, 22%
O=c1cc(N2CCc3ccccc32)[nH]c(=O)n1Cc1ccc(F)cc1
 : >57, -14%
O=C(Nc1nncs1)C1c2ccccc2Oc2ccccc21
 : >57, 7%
COc1ccc(CCNC(=O)CCC(=O)N2CCN(S(=O)(=O)c3ccccc3)CC2)cc1OC
 : >57, 15%
Cc1cccc(NC(=O)C2C(C(=O)O)C3C=CC2C32CC2)c1C (centres undefined)
 : nt, -10%
C[C@@H]1C=C[C@](Cc2ccccc2)(C(=O)NCCc2c[nH]c3ccccc23)N1C(=O)c1ccccc1
 : nt, ?
NC(=O)/C(=C\c1ccncc1)c1cccc2ccccc12
 : >57, 7%[8 µM]
COC(=O)Nc1nc2ccc(SC(C)C)cc2[nH]1
 : >57, ?
c1ccc2nc3c(nc2c1)sc1nc2ccccc2n13
 : nt, 20%
CCOC(=O)c1cn(CC(=O)Nc2ccc(C(C)C)cc2)nn1
 : >57, -23%
S=C(c1ccc(N2CCCC2)cc1)N1CCCCC1
 : >57, -3%
O=C(c1ccccc1)C1CCc2occc2C1=O (centres undefined)
 : >57, 1%
COc1ccc(OCCNS(=O)(=O)c2ccccc2)cc1
 : nt, 5%
O=C1CN(C(=O)COC(=O)c2ccccc2NC(=O)c2ccco2)c2ccccc2N1
 : >57, 7%
CCCCc1ccc(NS(=O)(=O)N(C)C)cc1
 : nt, -8%
CCN(CC(=O)O)C(=O)c1cccnc1
 : >57, 2%[8 µM]
O=c1cc(CSc2nnc(COc3ccccc3)o2)c2ccccc2[nH]1
 : >57, 4%
NC(=O)C1CCN(C(=O)CN2CCCc3ccccc32)CC1
 : >57, -6%

Retrieved by structure from above, 3 records:
Every second line gives: Prx2 Sm inh, LT uptake inh
CCn1c(=O)cc(O)c2ccccc21
 : nt, -8%
O=C(NCc1ccco1)c1cc2ccccc2o1
 : nt, -1%
COc1ccc(C2c3c(oc4ccccc4c3=O)C(=O)N2c2ccccn2)cc1OC (centres undefined)
 : >57, 4%

Carrying on:
Every second line gives: Prx2 Sm inh, LT uptake inh
Cc1ccccc1C(=O)O
 : nt, ?
Cc1ccc(C(O)c2cccnc2)o1 (centres undefined)
 : >57, -4%
COc1ccccc1NC(=O)CSc1nnc(-c2ccco2)n1Cc1ccco1
 : >57, 21%
CCn1c(NC(=O)c2ccco2)c(-c2ccccc2Cl)c(=O)c2ccccc21
 : >57, -6%
CCOC(=O)C1=C(c2ccccc2)Nc2ncnn2C1c1cc(OC)ccc1OC (centres undefined)
 : nt, ?
CC(=O)Nc1nonc1-c1nc2ccccc2n1Cc1ccccn1
 : >57, 6%
COC(=O)CSc1nnc(-c2cccnc2)n1-c1cc(OC)cc(OC)c1
 : >57, ?
COc1ccc(-n2c(=O)c(-c3ccc(F)cc3)nc3cncnc32)cc1
 : >57, 1%
O=C(CSc1nccn1-c1ccc(Cl)cc1)Nc1ccc2c(c1)OCO2
 : >57, -14%
Cc1cc2c(c(=O)n1C1CC1)C(c1cccc(Cl)c1)C(C#N)=C(N)O2 (centres undefined)
 : >57, ?
CNC(=O)CN(C#N)c1nc(N(C)C)nc(N(C)C)n1
 : >57, -12%
COc1cccc2c1[C@@H]1CN(CCCCn3c(=O)[nH]c4c(sc5ncc(-c6ccccc6)nc54)c3=O)C[C@H]1CO2
 : >57, 25µM*
Cc1ccccc1-c1nc(Cc2ccccc2)no1
 : nt, -23%
CCOC(=O)c1ccc(-n2c(=S)sc3c(=O)[nH]c(C)nc32)cc1
 : >57, -4%
CCOC(=O)N1CCN(S(=O)(=O)c2ccc(F)c(C(=O)Nc3cc(C)cc(C)c3)c2)CC1
 : >57, ?
O=C1CC(N2CCC(c3nc4ccccc4o3)CC2)C(=O)N1c1ccc(Cl)c(C(F)(F)F)c1 (centres undefined)
 : nt, -3%
O=C(COC(=O)c1n[nH]c2ccccc12)NC(=O)NC1CCCCC1
 : >57, -5%
COc1ccc(C2CC(=O)c3cnc(N)nc3C2)c(OC)c1 (centres undefined)
 : >57, nt
O=C1C2C3C=CC(C3)C2C(=O)N1c1ccccc1 (centres undefined)
 : nt, -2%
CC(CO)(CO)Nc1ncnc2ccccc12
 : >57, 2%[8 µM]
CC(=O)c1oc2ccccc2c1N
 : >57, -10%
COc1ccc(-n2c(=O)c(-c3ccc(F)cc3)nc3cnc(N4CCOCC4)nc32)cc1
 : >57, ?
CCOCCCNC(=O)c1cc2c(-c3ccc(Cl)cc3)nn(C)c2s1
 : >57, -10%
O=C(NCc1cccnc1)c1ccc2c(=O)n(CCCN3CCCC3=O)c(=S)[nH]c2c1
 : >57, -1%
CCOC(=O)c1c(NC(=O)c2cc(C3CC3)on2)sc(C(C)=O)c1C
 : >57, 1%
CC(=O)N1CCc2[nH]c3ccccc3c2C1
 : >57, 6%
O=C(CCc1nc2ccccc2c(=O)[nH]1)NC1CCN(Cc2ccccc2)CC1
 : >57, -4%
Cn1c(O)c(C=NCc2ccco2)c(=O)n(C)c1=O
 : >57, 11%
CCOc1ccc(C2CC(c3ccc(CC)cc3)Nc3nc(N)nn32)cc1 (centres undefined)
 : nt, -7%
O=C(c1cc(C(F)(F)F)cc(C(F)(F)F)c1)N1CCC2(CCCN(c3ncccn3)C2)CC1
 : >57, ?
Cc1ccc(-c2nnc3c4ccccc4c(C)nn23)cc1S(=O)(=O)N1CCN(CCO)CC1
 : >57, -7%
Cc1c(-c2ccccc2)nc(N)c(C#N)c1-c1ccco1
 : >57, nt
Cc1ccc(OCC(=O)O)c(-n2nc3ccccc3n2)c1
 : nt, -9%

Assay outcomes deposited in PubChem BioAssay by National Center for Advancing Translational Sciences (NCATS).
